# Assay outcomes: PubChem, SRMLSC
# H5N1 CPE = MDCK cell protection from H5N1 avian flu; cytopathic effect, luminescence, 72 h; stronger effect = higher value; no value below 0 was filed and about half of the inactive calls have no number; reference of the scale not given here; inhibition, % at 50 µM; 0.07% of 96,000 active; AID 740, 2007; in the data active = inhibition above about 25%
# * marks the source's active call; other numbers are inactive results; i = inactive.
SMILES,H5N1 CPE
Cn1cc(C(=O)NCC2COc3ccccc3O2)c(=O)c2cc(S(=O)(=O)N3CCCCC3)ccc21 (stereo unspecified),i
CCOc1ccc(-n2c(-c3ccoc3)nc3ccccc3c2=O)cc1,0.5
COc1ccc(O)c(CN2CCN(C/C=C/c3ccccc3)CC2)c1,0.2
O=C(Nc1nnc(-c2ccco2)s1)C1CCN(S(=O)(=O)c2ccc(Cl)cc2)CC1,i
COc1ccccc1C1(O)CCN(CC(=O)Nc2c(C)nn(C)c2C)CC1,i
Cn1cccc1C1NC(=O)c2c(sc3c2CCC(C(C)(C)C)C3)N1 (stereo unspecified),3.3
CC1=C(C(=O)Nc2ccccc2C)C(c2ccc(C)o2)N2C(=O)CSC2=N1 (stereo unspecified),1.0
CCc1nc(OCc2ccccc2)c2sc3nc4c(cc3c2n1)COC(C)(C)C4,0.4
COC(=O)c1ccccc1NC(=O)Cn1ccnc1,1.6
O=C(Nc1cc2ccccc2oc1=O)C1CCCCC1,i
CCOC(=O)N1CCN(C(=O)c2ccc3nc4ccsc4c(=O)n3c2)CC1,1.9
COc1cc2ccccc2cc1C(=O)N1CCN(C)CC1,1.4
CCOc1ccc(N2C(=O)c3cccnc3C2Nc2ccc(Cl)cc2)cc1 (stereo unspecified),0.5
O=C(CN1C(=O)CSC1=O)Nc1ccc(F)c(F)c1F,0.4
O=C1N(CN2CCOCC2)c2ccccc2C1(O)c1c[nH]c2ccccc12 (stereo unspecified),i
Cc1ccc2c(c1)C(O)(c1c(C)[nH]c3ccccc13)C(=O)N2 (stereo unspecified),i
O=C1CC(c2cccs2)c2cc3c(cc2N1)OCO3 (stereo unspecified),0.4
Cc1cccc(C)c1NC(=O)CCS(=O)(=O)c1cccc2nsnc12,i
O=c1[nH]c(Nc2nc3ccccc3o2)nc2c1CCCC2,1.4
COc1cc(OC)cc(-c2nnc(SCc3cccc(C(=O)O)c3)o2)c1,0.3
CC(C)Oc1ccc(C(CC(=O)O)NC(=O)c2cccs2)cc1 (stereo unspecified),0.6
CCOc1ccc2nc(N3CCCC(C(=O)N4CCN(CC)CC4)C3)sc2c1 (stereo unspecified),1.6
CCS(=O)(=O)Nc1cccc(C(=O)CC2(O)C(=O)Nc3ccccc32)c1 (stereo unspecified),0.2
COc1ccc(S(=O)(=O)N2CCN(C(=O)NC3CCCCC3)CC2)cc1OC,i
CN(C(=S)NC(=O)CCCOc1ccc(Cl)cc1Cl)c1ccccc1,0.1

# 17 structures already listed, ordered by SMILES length, low to high.
SMILES,H5N1 CPE
COC(=O)c1ccccc1NC(=O)Cn1ccnc1,1.6
O=C(Nc1cc2ccccc2oc1=O)C1CCCCC1,i
O=C1CC(c2cccs2)c2cc3c(cc2N1)OCO3 (stereo unspecified),0.4
O=c1[nH]c(Nc2nc3ccccc3o2)nc2c1CCCC2,1.4
CC(C)Oc1ccc(C(CC(=O)O)NC(=O)c2cccs2)cc1 (stereo unspecified),0.6
CCOc1ccc(-n2c(-c3ccoc3)nc3ccccc3c2=O)cc1,0.5
CN(C(=S)NC(=O)CCCOc1ccc(Cl)cc1Cl)c1ccccc1,0.1
Cc1cccc(C)c1NC(=O)CCS(=O)(=O)c1cccc2nsnc12,i
Cn1cccc1C1NC(=O)c2c(sc3c2CCC(C(C)(C)C)C3)N1 (stereo unspecified),3.3
Cc1ccc2c(c1)C(O)(c1c(C)[nH]c3ccccc13)C(=O)N2 (stereo unspecified),i
CCOc1ccc2nc(N3CCCC(C(=O)N4CCN(CC)CC4)C3)sc2c1 (stereo unspecified),1.6
CCOC(=O)N1CCN(C(=O)c2ccc3nc4ccsc4c(=O)n3c2)CC1,1.9
CCc1nc(OCc2ccccc2)c2sc3nc4c(cc3c2n1)COC(C)(C)C4,0.4
CCS(=O)(=O)Nc1cccc(C(=O)CC2(O)C(=O)Nc3ccccc32)c1 (stereo unspecified),0.2
CC1=C(C(=O)Nc2ccccc2C)C(c2ccc(C)o2)N2C(=O)CSC2=N1 (stereo unspecified),1.0
O=C(Nc1nnc(-c2ccco2)s1)C1CCN(S(=O)(=O)c2ccc(Cl)cc2)CC1,i
Cn1cc(C(=O)NCC2COc3ccccc3O2)c(=O)c2cc(S(=O)(=O)N3CCCCC3)ccc21 (stereo unspecified),i

# (more compounds)
SMILES,H5N1 CPE
CC(C)NC(=S)N/N=C1\CCCCC1C1CCCCC1 (stereo unspecified),0.1
COCCOC(=O)C1=C(C)OC(N)=C(C#N)C1c1ccc2c(c1)OCO2 (stereo unspecified),i
COc1cc(S(=O)(=O)N2CCC(C(N)=O)CC2)c(C)cc1C,i
Cc1ccc(NC(=O)CSc2nnc(-c3ccc(S(=O)(=O)N4CCCC4)cc3)o2)cc1C,3.2
CCOCCCNC(=O)c1cc(C)nn1-c1ccccc1,0.8
Cc1ccc2c(c1)C1CN(C)CCC1N2C(=O)Cn1nnc(-c2ccccc2F)n1 (stereo unspecified),i
O=S(=O)(c1ccc2c(c1)N(Cc1ccc(Cl)cc1)C1CCCN21)N1CCOCC1 (stereo unspecified),2.4
CCCN1C(=O)C2C(C(=O)Nc3cccc(OC)c3)C3C=CC2(O3)C1C(=O)NC1CCCCC1 (stereo unspecified),i
O=C(c1cccs1)N1CCN(S(=O)(=O)N2CCCCC2)CC1,1.1
COc1nc(NC(C)(C)C)nc(Oc2ccc(=O)n(C)n2)n1,i
O=S(=O)(NCCSc1ccc(Cl)cc1)c1ccc2c(c1)OCCO2,1.7
CCOC(=O)C1=C(CN2CCC(C)CC2)NC(=O)NC1c1ccc(Cl)cc1 (stereo unspecified),i
Cc1ccc(S(=O)(=O)CC(=O)c2ccc(C(C)(C)C)cc2)cc1,2.5
COc1ccccc1NC(=S)NCCc1c[nH]c2ccccc12,7.1
CCCn1c2ccccc2c2nnc(SCC(=O)Nc3nnc(CC(=O)OCC)s3)nc21,0.8
O=C(Cn1nc(-c2cccc(Cl)c2)ccc1=O)Nc1cccnc1,0.9
COC(=O)c1ccc(-c2n[nH]c(=O)c3ccccc23)cc1,i
O=C(CN(c1ccc2c(c1)OCCO2)S(=O)(=O)c1ccccc1)NCC1CCCO1 (stereo unspecified),1.4
O=C(Nc1nnc(Cc2ccc(Cl)cc2)s1)c1cccs1,i
CC1=C(Sc2nc3ccccc3[nH]2)C(=O)NC(C)(C)C1,0.3
Cc1ccc(NC(=O)CCC(=O)OCC(=O)c2ccc(-c3ccccc3)cc2)cc1,0.1
COc1cc(Br)cc2cc(C(=O)N3CCCCC3C)c(=O)oc12 (stereo unspecified),1.5
Cc1cccc(N2CCN(C(=O)C(NS(=O)(=O)c3cccs3)c3ccccc3)CC2)c1C (stereo unspecified),i
Nc1cccc(-c2nc3ccccc3[nH]2)c1,i
Cn1cnnc1SCC(=O)c1ccc(OC(F)F)cc1,0.2

# The results go on.
SMILES,H5N1 CPE
O=S(=O)(c1ccc2c(c1)OCCO2)N1CCC(c2nc3ccccc3s2)CC1,i
Cc1ccc2[nH]c3c(N4CCN(Cc5ccccc5)CC4)ncnc3c2c1,i
CN(C)c1ccc(NC(=O)c2ccc(COc3cccc(Cl)c3)o2)cc1,i
CC(C)OC(=O)c1c(-c2ccc(C(C)C)cc2)csc1NC(=O)C1CCCO1 (stereo unspecified),2.2
O=c1[nH]c2ccc(S(=O)(=O)N3CCCCC3)cc2[nH]1,0.2
Cc1nn(-c2ccccn2)c2c1C(c1ccncc1)C1=C(CC(C)(C)CC1=O)N2 (stereo unspecified),1.0
O=C(NC1CCCC1)C(c1ccc(N2CCOCC2)cc1)N(Cc1ccco1)C(=O)c1ccco1 (stereo unspecified),i
O=c1c2ccccc2c(C=NCCc2ccccc2)c(O)n1Cc1ccccc1,i
Brc1cc(Br)c2nc(-c3ccc(N4CCOCC4)cc3)ccc2c1,1.7
CC(=O)c1cnc2c(-c3ccccc3)cnn2c1C,1.3
O=C(CCn1c(=O)[nH]c2ccsc2c1=O)N1CCc2ccccc2C1,2.0
N=C(N)SCc1cccc2ccccc12,0.4
CCN1CCN(C(c2ccccc2OC)c2nnnn2C2CCCCC2)CC1 (stereo unspecified),i
Cc1ccc(Nc2nc(N)nc(CSc3nc(C)cc(C)n3)n2)cc1,0.8
c1ccc(-n2cnnc2SCc2nc3ccccc3s2)cc1,0.7
COc1ccc(N=C2C(=O)Nc3c(C)cccc32)cc1,i
O=C(Cc1ccccc1)Oc1ccc(N2C(=O)CCC2=O)cc1,0.4
CC(C)(C)NC(=O)COC(=O)c1snc(C(=O)NC2CCCCC2)c1N,i
O/C(=C\Sc1nnc(Cc2ccccc2)o1)c1ccc(Br)cc1,i
CCCCN(C(=O)c1ccc(Cl)cc1)C1CC2CCC(C1)N2C (stereo unspecified),i
O=C(CN1CCN(C(=O)N2CCCCC2)CC1)Nc1ccc(F)cc1,1.6
NS(=O)(=O)c1ccc(-n2nncc2C23CC4CC(CC(C4)C2)C3)cc1,5.6
Cc1ccc(CN2C(=O)CCC2C(=O)NCCCN2CCCCC2C)cc1 (stereo unspecified),1.3
O=C(CSCC(=O)OCC(=O)c1ccc(Br)cc1)Nc1ccc(Br)cc1,i
NC(=O)CSc1nnc(-c2ccc(S(=O)(=O)N3CCOCC3)cc2)n1Cc1ccccc1,5.9

# Remaining list, next part
SMILES,H5N1 CPE
COc1ccccc1C(=O)Nc1nc(-c2cccs2)c(NC(C)=O)s1,i
C(=C\c1ccccc1)/CN1CCN(c2ncnc3c2oc2ccccc23)CC1,0.5
CP(=O)(O)CCCN,i
O=P(Nc1c(Cl)cccc1Cl)(c1ccccc1)c1nc2c(s1)CCCC2 (stereo unspecified),i
CCC/C(O)=C1\C(=O)CCCC1=NC(C)C(=O)O (stereo unspecified),i
CN(C)CCN=Cc1c(O)n(-c2cccc(C(F)(F)F)c2)c(=O)[nH]c1=O,i
O=C(c1cnc2n(c1=O)CCS2)N(c1ccccc1)C1CCCCC1,0.4
NC(=O)CC(c1ccccc1)c1ccco1 (stereo unspecified),i
O=c1[nH]c(NCCO)nc2c1C1(CCCCC1)Cc1ccccc1-2,i
COc1ccc2c(CC(=O)NCC3CCC(C(=O)O)CC3)cc(=O)oc2c1 (stereo unspecified),i
COC(=O)c1cc(Cl)c(NC(=O)/C=C/c2ccc(Cl)cc2)cc1OC,0.1
COc1ccc(NC(=O)C2CCCCN2CC(=O)OCc2ccccc2)cc1OC (stereo unspecified),i
COc1ccc(-c2noc(CCCC(=O)O)n2)cc1,i
CC(=O)Nc1sc2c(c1CN1CCN(C)CC1)CCCC2,1.0
CC(=O)SC(C[N+](=O)[O-])c1cn(C(C)=O)c2ccccc12 (stereo unspecified),i
CCCOc1cccc(CN2CCCCC2c2cccnc2)c1 (stereo unspecified),2.4
CCN(CC)CCCn1c(=S)[nH]c2cc(Cl)ccc2c1=O,i
Cc1cc(N2C(=O)C3CCCN3C2c2cccc(Cl)c2)no1 (stereo unspecified),i
COc1ccc(Nc2nccc(OC)c2C#N)cc1,i
Cc1ccc2cc(CN(Cc3cccs3)Cc3nnnn3CC3CCCO3)c(=O)[nH]c2c1C (stereo unspecified),i
CCN1CCN(CC(=O)Nc2nc3ccc(OC)cc3s2)CC1,1.2
CCOC(=O)c1[nH]c2ccc(OC)cc2c1N=CN(C)C,0.0
O=C(Nc1ccc(S(=O)(=O)Nc2nccc(C3Cc4ccccc4C(=O)O3)n2)cc1)c1ccccc1 (stereo unspecified),i
c1ccc(-c2nnc3n2N=C(c2ccc4c(c2)OCO4)CS3)nc1,1.4
Cc1cccc(OCCCCc2c(C)n[nH]c2C)c1,i

# (next part)
SMILES,H5N1 CPE
CC(C(=O)NC1CCCC1)N(C(=O)c1snc(C(N)=O)c1N)c1ccc2c(c1)OCCO2 (stereo unspecified),i
CCC(C)NC(=O)c1c(N)n(CCCOC)c2nc3ccccc3nc12 (stereo unspecified),i
Cc1ccc(S(=O)(=O)Nc2nc3ccc(S(=O)(=O)N4CCCC4)cc3s2)cc1,1.5
Cn1ncc(C#N)c1NC(=O)C1CC(c2ccc(Cl)cc2)=NO1 (stereo unspecified),i
Cc1c(Cl)cccc1NC(=S)NCCC(C)C,i
Cc1ccc(C(=O)Nc2ccc(N3CCN(S(C)(=O)=O)CC3)cc2)cc1,i
O=c1c2c3c(sc2nc2n1CCCCC2)CCCCC3,i
CC1(C)Cc2ccccc2-c2nnc(-c3ccco3)n21,1.1
O=C(CN1C(=O)CSc2ccccc21)N1CCc2ccccc21,0.3
Cn1cccc1Cc1nnc(SCC(=O)Nc2ccc3c(c2)OCCO3)n1-c1ccc(F)cc1,i
Cc1cc(NC(=O)CCCSc2nc(-c3ccco3)cc(C(F)(F)F)n2)no1,0.1
COc1ccc(C2CC(c3cccc(OC)c3OC)n3nnnc3N2)cc1 (stereo unspecified),1.2
O=C(CN1C2=NCCN2c2ccccc21)c1ccc(Br)cc1,i
NC(=O)C1CCN(C(=O)CSc2nc3ccccc3o2)CC1,0.9
Cc1ccc(N/C=C/C(=O)c2sc(-c3ccccc3)nc2C)cc1,i
CC(=O)c1cc2c(cc1NC(=O)CCNC(=O)c1ccccc1Cl)OCO2,i
COC(=O)C1(S(=O)(=O)c2ccc(C)cc2)CCOCC1,i
CC1CC(C)CN(C(=O)CSCC(=O)Nc2nc(-c3cccs3)cs2)C1 (stereo unspecified),1.0
O=C1c2ccccc2C(=O)N1CCC1=CCCCC1,i
CC(=O)c1ccc(OC(C)C)c(CC(C(N)=O)C(N)=O)c1,i
CN(C)S(=O)(=O)NCc1ccc2c(c1)OCO2,0.6
O=[N+]([O-])c1ccc(Sc2n[nH]c(-c3ccc(Cl)cc3Cl)n2)nc1,0.9
Cc1csc(SCC(=O)NC(=O)NCc2ccccc2)n1,0.3
Nc1nc(SCc2nc3scc(-c4ccccc4)c3c(=O)[nH]2)n[nH]1,i
N#C/C(=N\Nc1c(Cl)cccc1Cl)C(=O)NN,0.3

# Additional results.
SMILES,H5N1 CPE
CCOC(=O)c1c(-c2ccccc2)oc2ccc(O)c(CN3CCOCC3)c12,i
O=C(CSc1nnc(CNc2ccc(F)cc2)o1)N1CCCc2ccccc21,2.5
Cc1ccc(CNc2nc(N)c([N+](=O)[O-])c(Nc3cccc(F)c3)n2)cc1,i
O=[n+]1c2c(n([O-])c3c1CCC3)CCCC2,i
CCc1nnc(NC(=O)CC(=O)Nc2ccccc2C(=O)O)s1,i
Cc1cc(C(=O)NC(C)c2ccncc2)cs1 (stereo unspecified),0.5

# Three compounds already listed, arranged by SMILES length, descending:
SMILES,H5N1 CPE
Cc1ccc(CNc2nc(N)c([N+](=O)[O-])c(Nc3cccc(F)c3)n2)cc1,i
O=C(CSc1nnc(CNc2ccc(F)cc2)o1)N1CCCc2ccccc21,2.5
Cc1cc(C(=O)NC(C)c2ccncc2)cs1 (stereo unspecified),0.5

# Not all compounds are listed (hit frequency here may not be typical).
